# Compound activity as filed in PubChem BioAssay.
# rRNA inh HTS: inhibits bacterial ribosomal RNA function over humanized ribosomes. E. coli WT GFP vs humanized-ribosome RFP mutants, fluorescence, 24 h; hits give low values; DMSO median 0, no signal -100. GFP signal change (wild-type ribosome), % (concentration not given with the values). 350,000 compounds, 1.6% hits. AID 720706;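 active = significant combined selectivity score with lowered wild-type GFP, culture density cut under 30%, mutant RFP and density less affected; inactive = any of these conditions unmet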; also: one replicate is shown; some compounds called inactive have numbers as strong as hits
# UCH37 inh: blocks the human deubiquitinase UCH37; inhibition, % (concentration not given with the values); Q9Y5K5; AID 588478; 330,000 compounds, 0.33% hits; purified proteasome/UCH37, Ub-AMC cleavage fluorescence;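 active = mean of two replicates above 20%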;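 also: 0% = compound-free wells with enzyme and 100% = wells lacking proteasome; stock transfer was 100 nL into about 20 µL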
# Target sequence (Q9Y5K5 whole entry, looked up): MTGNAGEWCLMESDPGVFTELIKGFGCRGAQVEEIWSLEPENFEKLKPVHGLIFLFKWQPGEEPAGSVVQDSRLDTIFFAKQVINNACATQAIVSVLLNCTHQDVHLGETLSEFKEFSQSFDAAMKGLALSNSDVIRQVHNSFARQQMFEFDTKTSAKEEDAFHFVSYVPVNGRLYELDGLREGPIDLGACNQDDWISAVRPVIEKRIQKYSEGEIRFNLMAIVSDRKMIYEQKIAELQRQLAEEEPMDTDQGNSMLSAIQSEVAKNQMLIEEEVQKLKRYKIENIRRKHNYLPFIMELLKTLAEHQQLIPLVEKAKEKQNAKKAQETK
#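 Reagent: Ub-AMC substrate; assay system: Proteasome-associated human UCH37 deubiquitinase; controls: no-proteasome and no-compound wells; read-out: % inhibition of Ub-AMC cleavage fluorescence; timing: 30 min preincubation with enzyme, 25 min cleavage at room temperature; signal: AMC fluorescence from Ub-AMC cleavage, excitation 355 nm, emission 460 nm; buffer or medium: Tris-HCl pH 7.4 plus ovalbumin, ATP-MgCl2, DTT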
# Beta cell apopt: beta cell apoptosis inhibition. INS-1E cytokine-induced death, ATP luminescence, 48 h; percent of positive-control rescue, neutral wells zero. protection from apoptosis, % (concentration not given with the values). 300,000 compounds, 0.8% hits. AID 435005;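 active = all replicates at 75% or more, or half of them and the mean; inconclusive = half reach 75% but not the mean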;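 also: 0% = cytokine-treated negative control wells and 100% = positive control rescue; higher means more ATP so stronger rescue from cytokine killing; wells of about 40 µL received 100 nL stock; the first replicate is given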
# Ecoli growth: E. coli growth inhibition | 330,000 compounds, 0.21% hits | OD600 absorbance (concentration not given with the values) | Escherichia coli growth, OD600, 23 h; hits give low values;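 active = OD600 absorbance below the run mean of sample wells minus 3.6 SD, in any replicate, cut at about 0.56 in these data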;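 also: stock transfer was 300 nL into about 60 µL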
# T cruzi inh: T. cruzi replication inhibition. T. cruzi beta-gal in NIH3T3, luminescence, 90 h. inhibition, % (test concentration not listed). 300,000 compounds, 1.4% hits. AID 1885;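 active = mean inhibition across valid replicates above about 55%, limit read from the data; inconclusive = mean below that limit but half or more replicates reach it; inactive = mean below it, under half of replicates reach it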;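 also: signal also drops with host cell toxicity which is not excluded here; 0% = plate median of DMSO wells and 100% = zero luminescence signal; higher percent means less beta-gal luminescence so fewer parasites; stock transfer was 50 nL into about 50 µL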
# Bfl-1 A1 inh: inhibitors of the anti-apoptotic protein A1, read as caspase activation; MEF A1-2A-BIM cells, Caspase-Glo 3/7 luminescence, 3 h; percent of clofoctol response, vehicle zero; caspase activation, % (test concentration not listed); 330,000 compounds, 0.066% hits;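 active = over half of replicate activation scores above 10%, or exactly half above 10 with the replicate mean above 10; inconclusive = replicate mean below 10 yet half the replicates above 10; inactive = over half of replicates below 10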;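 also: wells of about 30 µL received 50 nL stock; many hits fall short of the cut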
# FGF22 binding: FGF22 (human) thermal shift binding | AID 651658 | 340,000 compounds, 1.5% hits | Q9HCT0 | recombinant FGF22 thermal shift, SYPRO orange fluorescence; percent of sucrose octasulfate shift, DMSO zero | calls only at 9.99 µM;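 active = melting point raised past a set limit in the mean and every replicate; inconclusive = no clear call; three in four hits are not shown here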
# Target sequence (Q9HCT0 whole entry, looked up): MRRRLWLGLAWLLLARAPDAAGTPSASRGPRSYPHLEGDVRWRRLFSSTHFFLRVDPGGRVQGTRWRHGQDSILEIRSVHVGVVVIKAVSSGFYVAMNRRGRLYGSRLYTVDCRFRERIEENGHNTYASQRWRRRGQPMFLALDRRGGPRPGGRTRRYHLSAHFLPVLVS
# AF4-AF9 inh: blocks AF4 peptide binding to human AF9; P42568; inhibition, % at 10 µM; 350,000 compounds, 0.47% hits; AID 651704; AlphaScreen, biotin-AF4 peptide binding to FLAG-AF9;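 active = every replicate reaching a set inhibition limit, whatever the replicate mean, cut at about 25% in these data; inconclusive = mean inhibition reaches that limit but some replicates miss it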;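 also: 0% = plate neutral control median and 100% = total signal loss; the record names both 10 and 1 µM as test concentration; the first replicate is given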
# Target sequence (P42568 whole entry, looked up): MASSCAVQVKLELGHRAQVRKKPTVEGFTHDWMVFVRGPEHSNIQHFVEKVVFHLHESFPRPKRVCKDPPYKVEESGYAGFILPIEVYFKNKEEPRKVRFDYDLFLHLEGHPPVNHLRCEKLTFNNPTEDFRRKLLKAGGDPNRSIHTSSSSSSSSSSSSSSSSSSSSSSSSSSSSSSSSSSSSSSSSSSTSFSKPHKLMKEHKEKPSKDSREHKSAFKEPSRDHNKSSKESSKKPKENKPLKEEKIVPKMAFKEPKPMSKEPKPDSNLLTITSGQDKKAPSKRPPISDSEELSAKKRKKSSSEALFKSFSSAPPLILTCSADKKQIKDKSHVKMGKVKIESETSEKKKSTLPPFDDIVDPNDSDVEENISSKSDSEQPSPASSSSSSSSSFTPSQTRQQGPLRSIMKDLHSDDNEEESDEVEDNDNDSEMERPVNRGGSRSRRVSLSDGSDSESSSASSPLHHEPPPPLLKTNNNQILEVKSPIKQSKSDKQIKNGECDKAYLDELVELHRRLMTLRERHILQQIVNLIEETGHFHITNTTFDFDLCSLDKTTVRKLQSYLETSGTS
# rRNA inh HTS OD600: recorded beside rRNA inh HTS, whose call it bears; OD600 change, %; measured here: OD600 growth;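 optical density of the mix in the first replicate; 0 = DMSO median and -100 = no signal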
# rRNA inh HTS RFP: further read-out of rRNA inh HTS, marked with its call; RFP signal change, %; measured here: RFP humanized mutant strains;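 first replicate; 0 = DMSO median and -100 = no signal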
# The depositor's hits bear a star; i = inactive; ? = inconclusive; / = no result given; + = active, no number.
entry	Structure	rRNA inh HTS	rRNA inh HTS OD600	rRNA inh HTS RFP	UCH37 inh	Beta cell apopt	Ecoli growth	T cruzi inh	Bfl-1 A1 inh	FGF22 binding	AF4-AF9 inh
1	CC1CN(S(=O)(=O)c2cccc(C(F)(F)F)c2)CC(C)O1 (centres undefined)	-0.9	-8.6	-1.7	0.6	-3.6	0.705	-19.2	1.5	i	-1.8
2	Cc1ccc(S(N)(=O)=O)cc1NC(=O)c1ccc2c3c(cccc13)CC2	7.5	8.8	2.4	2.9	/	0.655	-1.5	0.7	i	-2.3
3	Cc1ccc(C(=O)NCC2CCCO2)cc1[N+](=O)[O-] (centres undefined)	3.1	3.1	-2.2	-1.4	-6.8	0.659	-5.6	-0.2	i	-5.8
4	COc1cc(OC)c(OC)cc1/C=C/C(=O)OCC(=O)Nc1c(C)n(C)n(-c2ccccc2)c1=O	-3.0	3.2	-1.3	-9.5	/	0.669	/	/	i	-1.3
5	O=C(Nc1nnc(S(=O)(=O)Nc2ccccc2)s1)c1ccccc1Cl	4.7	-11.6	-7.3	6.8	0.4	0.631	-8.8	0.6	i	-3.1
6	COc1ccc(C(C)=O)cc1CSc1nncn1C	22.4	14.1	5.3	2.6	0.2	0.708	-4.8	0.2	i	-0.9
7	CC(=O)Nc1ccc(S(=O)(=O)NC2CCSc3ccccc32)cc1 (centres undefined)	-4.2	-7.9	7.9	1.2	0.7	0.659	-7.5	0.6	i	0.3
8	O=c1[nH][nH]c2cc([N+](=O)[O-])ccc12	-4.5	6.6	3.3	-0.7	/	0.642	/	/	i	2.6
9	CC(=O)C1=C(O)C(=O)N(CCc2ccccc2)C1c1ccccc1[N+](=O)[O-] (centres undefined)	11.1	17.8	8.9	9.9	-0.5	0.685	13.0	0.5	i	-6.6
10	CNC(=O)c1cc(Oc2ccc(NC(=O)Nc3ccc(Cl)c(C(F)(F)F)c3)cc2)ccn1	-53.2	-75.0	-34.5	31.2*	/	/	/	-0.6	i	4.1
11	O=C1CN(C(=O)c2cccc([N+](=O)[O-])c2)CC(=O)N1	2.9	13.7	-1.6	6.7	3.6	0.724	-10.0	0.0	i	-2.5
12	COc1ccc(C(=O)NCc2ccccn2)cc1	/	/	/	-1.9	-4.2	0.709	1.4	0.6	/	/
13	COc1cc(NC(=O)COc2ccc(-n3ccnc3)cc2)cc(OC)c1	-7.3	-16.2	2.1	0.4	-7.9	0.689	-3.7	0.3	i	2.7
14	O=C1Nc2ccc(Br)cc2/C1=N\N=C\C1=C(N2CCOCC2)C(=C/c2ccccc2)/CC1	3.4	1.6	10.5	4.2	/	0.812	/	/	i	6.3
15	COc1ccccc1-n1nnnc1SCC(=O)Nc1oc(C)c2c(C)n[nH]c(=O)c12	7.9	13.9	-0.9	0.4	-2.3	0.667	-0.7	-0.7	i	?
16	Cn1c(=O)c2c(ncn2CC(O)CNc2ccc(Cl)cc2)n(C)c1=O (centres undefined)	/	/	/	4.3	7.3	0.728	-1.9	1.3	/	/
17	COc1ccc2[nH]c(C)c(CCN(Cc3cccs3)C(=S)Nc3cccc(F)c3)c2c1	/	/	/	5.3	-0.4	0.742	62.9*	-0.3	/	/
18	O=C(N/N=C/c1cccnc1)c1ccccc1Br	5.8	9.5	-4.8	/	-2.3	/	-8.3	1.2	i	3.7
19	CC(C)(C)c1ccc(C(=O)NNC(=O)CNC(=O)c2cccs2)cc1	-9.5	-22.8	-0.5	2.2	-1.1	0.681	/	-0.4	i	6.9
20	Cc1ccc(C)c(S(=O)(=O)N2CCN(C(=O)CCCc3c[nH]c4ccccc34)CC2)c1	-12.8	-18.0	5.3	0.0	2.8	0.65	63.5*	-1.4	i	0.1
21	COc1cc(C(=O)Nc2ccc(S(=O)(=O)Nc3cc(C)nc(C)n3)cc2)cc(OC)c1OC	3.7	-1.9	0.1	0.6	-0.1	0.656	2.4	2.5	i	-2.6
22	COC(CNC(=O)c1ccc(N2CCc3ccccc32)c([N+](=O)[O-])c1)OC	/	/	/	6.3	8.3	0.694	-13.8	-0.1	/	/
23	O=C(NCCCNCc1ccccc1)c1ccccn1	18.0	17.5	2.7	5.7	-4.9	0.735	0.4	0.3	i	4.2
24	Cc1nnc(SCC(C)C)[nH]c1=O	/	/	/	2.1	0.0	0.697	-9.4	-0.2	/	/
25	Cc1nc2nc(C)c(CCC(=O)NC(C)c3ccc4c(c3)OCCO4)c(C)n2n1 (centres undefined)	/	/	/	-0.3	1.3	0.693	7.0	0.2	/	/
26	CCc1c(C)n2nc(C)cc2[nH]c1=O	/	/	/	-5.3	-5.0	0.668	10.9	-0.1	/	/
27	O=C(CSC1=NS(=O)(=O)c2cc(F)ccc2N1)Nc1ccc(F)cc1	1.1	1.6	0.9	/	-2.0	/	-10.3	0.6	+	-1.9
28	CS(=O)(=O)N(CC(=O)NCCSCc1ccccc1Cl)c1ccc(F)cc1	-7.4	-7.7	-4.3	3.3	-0.9	0.684	0.2	0.1	i	2.3
29	COc1cccc(NC(=O)C2CC(=O)N/C(=N/NC(=O)c3ccc(C)cc3)S2)c1 (centres undefined)	-18.7	-22.8	5.1	6.7	-4.3	0.706	0.6	0.0	i	0.1
30	O=C(COc1ccccc1)NCC1COc2ccccc2O1 (centres undefined)	0.0	6.6	1.4	3.3	-0.8	0.717	2.1	-0.7	i	-4.0
31	COc1ccc(S(=O)(=O)N(C)C)cc1NC(=O)CCNC(=O)c1ccco1	4.6	7.6	1.0	4.7	-9.5	0.705	4.6	0.4	i	-6.5
32	CCOc1cc(C(=O)N=c2sccn2C)ccc1OC(F)F	-26.2*	-20.9*	-8.7*	-1.4	-5.7	0.693	5.6	0.4	i	-0.9
33	COc1ccc(NC(=O)c2ccc(-c3ccc(C(C)=O)cc3)o2)cn1	-3.7	5.6	0.8	-43.9	1.5	0.709	/	-0.6	i	-1.0
34	CC(C)Cn1c(=O)c(CCC(=O)Nc2ccc(N3CCOCC3)cc2)nc2cc(Cl)ccc21	2.6	2.8	-3.3	5.6	1.6	0.68	33.9	0.4	i	1.4
35	N/C(=N\OC(=O)c1ccc2c(c1)OCO2)c1ccncc1	1.0	2.4	-3.9	1.7	-6.0	0.7	5.6	-10.2	i	-24.6
36	CCOC(=O)C1(Cc2cccc(OC)c2)CCCN(S(=O)(=O)CC)C1 (centres undefined)	-4.1	-3.7	-0.4	3.0	/	0.707	-11.2	0.3	i	-1.8
37	CC(C)CN(C(=O)CSc1ncnc2sccc12)C1CCS(=O)(=O)C1 (centres undefined)	4.8	4.4	1.2	2.5	3.2	0.68	/	-0.8	i	-17.5
38	O=C(NCCNC(=O)c1ccccc1[N+](=O)[O-])c1ccccc1[N+](=O)[O-]	3.0	11.2	-0.9	1.9	-9.3	0.677	2.1	0.8	i	1.9
39	COc1ccc(CC(=O)NCc2nn(-c3ccccc3)nc2C)cc1OC	7.5	3.6	-0.5	-0.9	-7.4	0.677	/	0.4	i	3.7
40	CCOC(=O)CSc1nc2sccc2c(=O)[nH]1	/	/	/	0.0	3.6	0.714	-2.1	-0.8	/	/
41	O=C(NCc1ccncc1)C1=NN(c2ccccc2)C(=O)CC1	17.0	2.9	1.3	1.1	3.3	0.683	-12.2	-0.6	i	-3.9
42	C=CCn1c(SCC(=O)NC(=O)c2cccn2C)nc2ccccc2c1=O	10.8	11.4	0.5	-0.4	-4.1	0.657	0.1	-0.2	i	-1.7
43	CCS(=O)(=O)Nc1cc(-c2nc3cccnc3s2)ccc1C	-13.7	-27.6	-10.8	-22.3	-5.2	0.72	-2.3	-1.3	i	-4.1
44	N#CCC(=O)Nc1ncc(Cc2ccccc2Cl)s1	-18.9	0.0	11.7	/	-13.2	/	-6.6	0.3	i	-35.4
45	Cc1cc(C)cc(OC(=O)CCN2C(=O)C3C4C=CC(C5CC45)C3C2=O)c1 (centres undefined)	-3.2	-3.1	-0.9	0.5	5.4	0.7	-11.1	0.0	i	-9.6
46	CCc1c(C)nc2ccc(Br)cc2c1SCCC#N	-11.1	-18.5	-6.5	2.9	-7.7	0.632	3.4	-0.5	i	-5.9
47	CCC(C)[C@@H](C(=O)Nc1ccc(OC)c(OC)c1)N1Cc2ccccc2C1=O (some centres undefined)	9.8	-21.6	-2.4	7.6	/	0.779	12.2	0.8	i	4.4
48	COc1cccc(/C=N/NC(=O)c2nnn(-c3nonc3N)c2C(C)C)c1	-17.2	-3.9	7.6	/	-21.9	/	-3.2	-0.8	i	-1.9
49	COC(=O)N/N=C(\C)c1ccc2ccccc2c1OC(F)F	-4.3	-12.1	0.7	/	1.9	/	-1.9	0.6	i	1.8
50	NC1=NC2(CCCCC2)N(c2cccc(Cl)c2)C(N)=N1	/	/	/	2.6	-6.1	0.705	3.6	0.2	/	/

# New compounds follow.
entry	Structure	rRNA inh HTS	rRNA inh HTS OD600	rRNA inh HTS RFP	UCH37 inh	Beta cell apopt	Ecoli growth	T cruzi inh	Bfl-1 A1 inh	FGF22 binding	AF4-AF9 inh
51	COc1cccc(-c2nn(C)c3sc(C(=O)NCc4ccc(C)cc4)cc23)c1	/	/	/	-11.5	-2.0	0.719	40.8	1.0	/	/
52	CC1(C)Cc2c(sc3c2c(=O)n(-c2cccc(Cl)c2)c(=O)n3CC(N)=O)CO1	1.0	10.4	0.8	2.9	-8.1	0.632	10.1	-0.6	i	/
53	COc1ccc(-c2nnc3ccc(SC)nn23)cc1	/	/	/	-1.4	13.8	0.668	3.5	0.0	/	/
54	COc1ccc(CC(=O)Oc2ccccc2C)cc1S(=O)(=O)N1CCOCC1	1.6	-1.7	-1.6	2.8	-1.4	0.629	-5.9	0.3	i	-2.3
55	COc1ccc(-c2n[nH]c(=S)n2C2CCCCC2)cc1	/	/	/	2.9	-2.3	0.746	0.1	0.0	/	/
56	CCN(C(=O)CSc1nnc(C)n1-c1ccccc1)C1CCS(=O)(=O)C1 (centres undefined)	18.9	12.1	-3.8	3.1	-4.4	0.732	12.9	0.1	/	0.4
57	CCc1noc(C)c1C(=O)OCC(=O)c1ccccc1OC	10.4	2.9	-1.1	-2.3	/	0.706	-9.2	1.0	i	-2.4
58	C=C1c2cc(C)ccc2NC(=O)N1c1ccc(C)cc1	/	/	/	1.5	-2.3	0.696	-9.1	1.2	/	/
59	O=C(Nc1ccc(Cl)cc1)c1ccc(-n2cccn2)c([N+](=O)[O-])c1	/	/	/	2.1	10.6	0.66	28.6	-0.4	/	/
60	COCCCNC(=O)CCn1c(=O)c2ccccc2n(CC(=O)NCCc2ccc(OC)c(OC)c2)c1=O	15.8	4.7	-1.9	3.9	-6.2	0.655	-1.7	0.5	i	-4.4
61	CC(O)CNCCCOc1ccc(Cl)cc1C(C)(C)C (centres undefined)	-40.9*	-27.1*	-12.7*	1.6	8.6	0.686	25.9	2.6	i	4.4

# This is a subset; count on the stated rates, not on these rows.
